Screens (PubChem BioAssay)
FPRL1 ligand – human FPRL1 ligands by binding competition, primary screen, cell-based, FPR counter-screen, flow cytometry; FPRL1-expressing cells, fluorescent ligand binding inhibition; inhibition, %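 (tested at 6.7 µM)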; 0.3% of 24,000 active; AID 441, 2006;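 also: 0% = buffer alone and 100% = receptor blocker peptide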
Target sequence (P25090 whole entry, looked up): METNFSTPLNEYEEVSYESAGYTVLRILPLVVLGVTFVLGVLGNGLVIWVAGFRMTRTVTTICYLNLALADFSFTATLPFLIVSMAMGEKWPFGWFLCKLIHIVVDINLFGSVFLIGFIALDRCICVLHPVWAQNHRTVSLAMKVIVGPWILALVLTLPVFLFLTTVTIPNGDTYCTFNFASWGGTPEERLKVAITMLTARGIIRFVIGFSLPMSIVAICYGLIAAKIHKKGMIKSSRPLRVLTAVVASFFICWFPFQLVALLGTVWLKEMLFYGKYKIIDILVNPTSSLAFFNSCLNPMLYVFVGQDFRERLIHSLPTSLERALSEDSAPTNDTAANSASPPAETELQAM
FPR ligand – human FPR ligands by binding competition, primary screen, cell-based, FPRL1 counter-screen, flow cytometry | fMet-Leu-Phe receptor (Homo sapiens), P21462 | FPR-expressing cells, fluorescent ligand binding | 0.74% of 24,000 active | AID 440, 2006 | inhibition, %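 (tested at 6.7 µM)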;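 also: 0% = buffer wells and 100% = receptor blocker peptide wells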
Target sequence (P21462 whole entry, looked up): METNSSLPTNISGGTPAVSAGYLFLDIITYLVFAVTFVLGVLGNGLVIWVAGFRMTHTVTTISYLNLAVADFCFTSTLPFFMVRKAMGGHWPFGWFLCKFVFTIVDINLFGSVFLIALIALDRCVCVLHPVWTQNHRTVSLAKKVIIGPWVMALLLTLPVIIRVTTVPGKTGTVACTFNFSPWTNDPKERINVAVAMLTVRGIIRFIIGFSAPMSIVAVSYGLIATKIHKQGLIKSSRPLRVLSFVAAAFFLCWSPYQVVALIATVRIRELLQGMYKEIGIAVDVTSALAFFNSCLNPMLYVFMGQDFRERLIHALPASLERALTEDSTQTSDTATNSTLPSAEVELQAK
VCAM-1 augmentation – enhancers of VCAM-1 display on endothelial cells, imaging, high-content imaging, pooled HUVEC, TNFa stimulus (AID 457); Pooled HUVEC, TNFa-induced VCAM-1 immunofluorescence imaging; hits of this screen are not shown here; calls only; 0.2% of 10,000 active;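 active = a top-ranked rise in VCAM-1 staining upheld on image or statistical review; inactive = the rest, including candidates rejected on review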;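 also: compounds tested at 5 µM in the well; cells exposed to compound for 24 hours before fixing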
VCAM-1 imaging – inhibitors of TNFa-induced VCAM-1 surface display, imaging, high-content imaging, pooled HUVEC, TNFa stimulus (AID 456); HUVEC TNFa-induced VCAM-1 surface expression, immunofluorescence imaging; numbers were filed only for top-ranked candidate wells; inhibition, % at 5 µM; hits with a dose series show IC50 in µM; 0.2% of 10,000 active;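 active = top tenth filtered wells with inhibition above zero that passed visual or statistical confirmation; inactive = the rest, including hits rejected on review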;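 also: 0% = stimulated vehicle wells and 100% = unstimulated cells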
VCAM-1 down – inhibitors of TNFa-induced VCAM-1 surface display, cell-based, plate reader, pooled HUVEC, TNFa stimulus (AID 454) | inhibition, % at 5 µM | HUVEC TNFa-induced VCAM-1 surface immunofluorescence, plate reader; numbers were filed only for top-ranked candidate wells | 0.2% of 10,000 active;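 active = compound among top-ranked inhibitors of TNF-induced VCAM-1 adhesion protein staining, with the hit upheld by image or statistical review; inactive = the rest, including hits rejected on review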;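 also: 0% = TNFa with vehicle and 100% = cells without TNFa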
* = called active by the depositor; i = inactive; · = no result given.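 The calls were made as follows, unless noted: active = mean above 30%; inconclusive = self-fluorescent; inactive = the rest.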 An excerpt. The share of hits here may be higher or lower than overall.

SMILES	FPRL1 ligand	FPR ligand	VCAM-1 augmentation	VCAM-1 imaging	VCAM-1 down
Cc1ccc(OC(=O)NC2CCS(=O)(=O)C2)cc1C (configuration not stated)	-2	-1	i	i	i
Cc1cccc(-n2ncc3c(N(CCO)CCO)ncnc32)c1	-5	-4	i	i	i
Cc1c(C(=O)Nc2cccc(C(F)(F)F)c2)oc2ccc(S(=O)(=O)N3CCOCC3)cc12	16	2	·	·	·
CC(C)c1cc(C(=O)Nc2cc(Cl)ccc2O)no1	-12	-19	·	·	·
O=C(Nc1cc(C(=O)N2CCCC2)ccc1N1CCCC1)c1ccccc1F	4	1	i	i	i
O=C(O)CCc1ccc(-c2ccc(F)cc2)n1CCC(=O)O	0	0	i	i	i
O=c1c[n+]([O-])c2ccccc2n1OCc1ccccn1	5	-4	i	i	i
CC1(C)Cc2nc3oc4c(N(CCO)Cc5ccccc5)ncnc4c3cc2CO1	9	1	i	i	i
CCOC(=O)N1CCN(C(=O)CSc2nnc(COc3ccc(Cl)cc3)o2)CC1	3	-2	·	·	·
CCOC(=O)N1CCC(NC(=O)c2cc3c(-c4ccc(Cl)cc4)nn(C)c3s2)CC1	1	-6	·	·	·
O=C(N1CCCCCC1)N1CCN(S(=O)(=O)N2CCCCC2)CC1	2	-2	i	i	i
CCS(=O)(=O)N1CCCC(C(=O)NCCCOC(C)C)C1 (configuration not stated)	1	-1	·	·	·
CCCOc1ccc(N2C(=O)C3ON(c4ccccc4)C(c4ccc(O)c(OC)c4)C3C2=O)cc1 (configuration not stated)	-3	-2	i	i	i
COC(=O)c1[nH]c(C)c(/C(O)=C2\C(=O)C(=O)N(CCN(C)C)C2c2ccccc2OC)c1C (configuration not stated)	1	3	i	i	i
CCCCn1cc(C(C)(C)C)c(C#N)c1NC(C)=O	2	-3	·	·	·
C=CCOc1ccc(C2/C(=C(\O)c3c(C)[nH]c(C(=O)OC)c3C)C(=O)C(=O)N2CCN(C)C)cc1 (configuration not stated)	2	6	i	i	i
c1csc(CCNc2ncnc3sc4c(c23)CCC4)c1	-4	7	·	·	·
CCCCCCn1c(CN2CCC(C)CC2)nc2c1c(=O)n(C)c(=O)n2C	-1	1	·	·	·
CC(=O)NS(=O)(=O)c1ccc(N)cc1	0	-4	i	i	i
O=C(c1nnc(Cc2ccc(Cl)cc2)o1)N1CCOCC1	4	5	·	·	·
COC(=O)c1ccc(NC(=O)CSc2nnc(Cc3cccn3C)n2-c2ccc(F)cc2)cc1	-1	-4	·	·	·
O=C(C1CC1)N1CCc2cc(Br)cc(S(=O)(=O)N3CCN(c4ccccn4)CC3)c21	-18	-10	·	·	·
CN1CCCCCC1=NC1=C(C#N)CCCC1	-1	-3	·	·	·
CCS(=O)(=O)N1CCCC(C(=O)NCCCN(C)Cc2ccccc2)C1 (configuration not stated)	-9	-12	·	·	·
Cc1cccc(N2CCN(C(=O)c3ccc(NS(=O)(=O)c4c(C)noc4C)cc3)CC2)c1C	6	-1	i	i	i
COc1ccc(-n2c(Cn3c(=O)sc4ccccc43)nnc2SC)cc1	-1	-11	·	·	·
CN(c1ccccc1)c1nc(-n2ccnc2)nc(-n2ccnc2)n1	1	0	·	·	·
O=C(CN1CCCN(S(=O)(=O)c2ccc(Br)cc2)CC1)Nc1ccc2cn[nH]c2c1	2	-6	i	i	i
COc1cc(C2C(C(=O)OC(C)C)=C(C)Nc3ncnn32)cc(OC)c1OC (configuration not stated)	3	9	·	·	·
CCC(C)(C(=O)NC1CCCC1)N(CC1CCCO1)C(=O)c1ccc2c(c1)OCO2 (configuration not stated)	2	37*	·	·	·
Cn1cc(/C=N/n2cnc3scc(-c4ccccc4)c3c2=O)c2ccccc21	-14	1	·	·	·
COc1ccc(OC)c(CN2C(=O)c3ccccc3C2C(=O)NCc2cccnc2)c1 (configuration not stated)	0	9	·	·	·
Nc1cc(-c2ccccc2)ccc1O	1	2	i	i	i
Cc1ccc(C(=O)C2COC(=O)C2)cc1 (configuration not stated)	-4	-1	i	i	i
CCOC(=O)NC(NCC(O)c1ccccc1)(C(F)(F)F)C(F)(F)F (configuration not stated)	-4	-4	·	·	·
NC(=O)C1(N2CCCCC2)CCN(C(=O)NC2CCCCC2)CC1	-2	-4	·	·	·
Cn1c(=O)[nH]c(=O)c2c1nc(NCCCn1ccnc1)n2Cc1cccc(Br)c1	1	0	i	i	i
NC(=O)CSc1nnc(Cn2c(=O)sc3ccccc32)n1CCc1ccccc1	-2	1	·	·	·
Cc1nc2sc(C(c3ccccc3)N3CCC(O)CC3)c(O)n2n1 (configuration not stated)	-6	-7	·	·	·
O=C(CC1N=C2c3ccccc3N=C(SCc3ccccc3Cl)N2C1=O)NCc1ccco1 (configuration not stated)	5	7	·	·	·
O=c1cc(-c2ccc(Cl)cc2)[nH][nH]1	-1	-1	i	i	i
Cc1occc1C(=O)Nc1cccc2ccccc12	13	14	i	i	i
Cc1cc2ncn(N)c2cc1C	1	3	i	i	i
CCC(C)Sc1nnc(Cc2cc(=O)[nH]c(=O)[nH]2)n1-c1ccc(OC)cc1 (configuration not stated)	-8	-11	·	·	·
Cc1ccccc1Cn1ccc(NC(=O)c2onc(C)c2Cl)n1	3	-3	i	i	i
CCn1cc(C(=O)N2CCN(c3ccccn3)CC2)c2cc(OC)c(OC)cc2c1=O	-1	-1	·	·	·
COc1ccc(-c2nc3ncccn3c2Nc2ccc3c(c2)OCCO3)cc1	-3	10	·	·	·
CC(=O)Nc1nonc1NC(=O)CSc1ccccn1	2	4	·	·	·
Cc1cc(C)cc(N2C(=O)C3C4C=CC(C4)C3C2=O)c1 (configuration not stated)	4	8	i	i	i
O=C(COC(=O)C1CCN(S(=O)(=O)c2cccs2)CC1)c1cc2ccccc2o1	-2	0	i	i	i

Ordered by formula weight (high to low): part of the list above
SMILES	FPRL1 ligand	FPR ligand	VCAM-1 augmentation	VCAM-1 imaging	VCAM-1 down
Cc1cccc(N2CCN(C(=O)c3ccc(NS(=O)(=O)c4c(C)noc4C)cc3)CC2)c1C	6	-1	i	i	i
c1csc(CCNc2ncnc3sc4c(c23)CCC4)c1	-4	7	·	·	·
CN1CCCCCC1=NC1=C(C#N)CCCC1	-1	-3	·	·	·

Next records.
SMILES	FPRL1 ligand	FPR ligand	VCAM-1 augmentation	VCAM-1 imaging	VCAM-1 down
O=C(c1ccccc1Oc1nnnn1-c1ccccc1)N1CCOCC1	6	4	i	i	i
CCC(C)(C(=O)NC1CCCC1)N(Cc1ccco1)C(=O)c1ccccn1 (configuration not stated)	10	-2	·	·	·
Cn1cccc1Cc1nnc(SCC(=O)NCC2CCCO2)n1CCc1ccccc1 (configuration not stated)	8	-5	·	·	·
Cc1ccc2[nH]c(=O)c(CN(CCCN3CCOCC3)C(=O)Nc3cccc(Cl)c3)cc2c1	-4	-1	i	102%	76
CCn1cc(C(=O)NCC2CCCO2)c(=O)c2cc(S(=O)(=O)N(C)C)ccc21 (configuration not stated)	0	-4	i	i	i
COc1ccc(C(=O)CSc2nnc(-c3ccc(C)cc3)o2)cc1	2	-9	i	i	i
O=C1NC(=O)C(c2ccccc2)(c2ccccc2)N1	5	-1	i	i	i
COc1ccccc1CN1CC(C(=O)NCC2CCCO2)CC1=O (configuration not stated)	12	0	·	·	·
COc1cccc2cc3c(=O)n(-c4ccccc4)nc-3oc12	11	20	·	·	·
CCCC(O)(CCN(C)C)c1ccc(OC)cc1 (configuration not stated)	1	5	i	i	i
COc1cccc(CNC(=O)CCNS(=O)(=O)c2cccs2)c1	-1	-6	·	·	·
CN(C(=O)C(Cl)Cl)c1ccc(OC(=O)c2ccco2)cc1	2	5	i	i	i
O=c1/c(=C/c2cccc3ccccc23)sc2ncnn12	17	-4	·	·	·
Cc1noc(C)c1S(=O)(=O)N1CCCC(C(=O)NCCC2=CCCCC2)C1 (configuration not stated)	2	5	·	·	·
COCCN1Cc2cccc(C(=O)Nc3c(C)cc(C)cc3C)c2C1=O	-3	0	·	·	·
CC(=O)/C(C[N+]1(C)CCCCC1)=N\O	0	4	i	i	i
CCc1cccc(NC(=O)Nc2cccs2)c1	11	5	·	·	·
C=CCNC(=O)C1CC(c2cccc(OC)c2)=NO1 (configuration not stated)	1	3	·	·	·
COc1ccc(N2CSC3=C(C#N)C(c4ccc(OC)c(OC)c4)CC(=O)N3C2)c(OC)c1 (configuration not stated)	2	-1	·	·	·
COc1cccc(NC(=O)CSc2nc3n[nH]c(C)c3c(=N)n2-c2cccc(OC)c2)c1	-3	-3	·	·	·

The list goes on; it opens with the two that closed the last part.
SMILES	FPRL1 ligand	FPR ligand	VCAM-1 augmentation	VCAM-1 imaging	VCAM-1 down
COc1ccc(N2CSC3=C(C#N)C(c4ccc(OC)c(OC)c4)CC(=O)N3C2)c(OC)c1 (configuration not stated)	2	-1	·	·	·
COc1cccc(NC(=O)CSc2nc3n[nH]c(C)c3c(=N)n2-c2cccc(OC)c2)c1	-3	-3	·	·	·
CC(=O)NCCn1c(SCC(=O)OCc2ccccc2)nc2ccccc2c1=O	2	-5	·	·	·
CCC(C)(C(=O)NC1CCCC1)N(C(=O)c1cnccn1)c1c(C)n(C)n(-c2ccccc2)c1=O (configuration not stated)	5	0	i	i	i
COC(=O)c1c(C)oc(C)c(C(=O)OC)c1=O	11	8	·	·	·
COC(=O)c1[nH]c2ccc(C)cc2c1NC(=O)CN1CCC(C)CC1	-2	4	i	i	i
COc1ccc(CNC(=O)C2CCCN(S(=O)(=O)c3cnc[nH]3)C2)cc1 (configuration not stated)	-1	0	·	·	·
O=C(Cc1ccc(S(=O)(=O)N2CCCC2)s1)Nc1nc2c(s1)CCCC2	1	4	i	i	i
CC(=O)c1ccc(Oc2cc(C)nc(-n3nc(C)cc3C)n2)cc1	4	22	i	i	i
O=C(CSc1nnc(-c2ccccc2)c(-c2ccccc2)n1)N1CCOCC1	-7	-6	i	i	i
COc1cccc(-n2c(SCC(=O)NC3CCCCC3)nc3n[nH]c(C)c3c2=N)c1	2	12	·	·	·
COCCn1c(COc2ccc(C)cc2)nc2ccccc21	-1	-1	·	·	·
CCOc1ccc(N(CC(=O)N2CCN(c3ccccc3)CC2)S(=O)(=O)c2c(C)noc2C)cc1	9	4	·	·	·
COc1ccc(N2CCN(C(CNC(=O)C3CCCCC3)c3cccnc3)CC2)cc1 (configuration not stated)	-1	2	·	·	·
CC1=C(C(N)=O)C(c2ccccc2)n2nc(-c3ccncc3)nc2N1 (configuration not stated)	-14	4	·	·	·
O=C(CNC(=O)c1ccccc1)NC1(C(=O)NC2CCCC2)CCCCC1	0	-7	·	·	·
COc1cccc(NC(=O)Nc2cccs2)c1	2	-4	i	i	i
COc1ccccc1N1CCN(C(=O)c2ccc(CS(=O)(=O)c3ccccc3OC)o2)CC1	-6	0	i	i	i
COc1ccccc1NC(=O)c1nnn(CC(=O)Nc2cccc(SC)c2)c1N	1	-5	·	·	·
Cc1cc(S(=O)(=O)N2CCN(c3ncccn3)CC2)ccc1-n1cnnn1	0	-18	i	i	i
CN(C)CCNC(=O)Cc1c(C(=O)O)n(C)c2ccccc12	0	-3	·	·	·
COc1ccc2cc(C(c3nnnn3C3CCCCC3)N3CCCCCC3)c3nnnn3c2c1 (configuration not stated)	-1	5	i	i	i
Cc1cccc(-n2nnc(C(=O)NCc3ccccn3)c2N)c1	2	5	·	·	·
O=C(COc1ccc(Cl)cc1)Nc1nc(-c2cccs2)cs1	-6	-3	i	i	i
CC(=O)Nc1ccc(NC(=O)Cn2cc3c(n2)CCC(C)C3)cc1 (configuration not stated)	1	-4	i	i	i
CC(=O)N1CCc2cc(S(=O)(=O)NC(C(=O)Nc3ccc4c(c3)OCCO4)C(C)C)ccc21 (configuration not stated)	0	6	·	·	·
O=C(c1ccccc1)c1cccn1CC(=O)N1CCN(c2ccc(F)cc2)CC1	15	0	·	·	·
CCOC(=O)N1CCN(C(=O)Cn2cc3c(n2)CCCC3)CC1	7	-3	·	·	·

Reprinted at random: 6 compounds from above.
SMILES	FPRL1 ligand	FPR ligand	VCAM-1 augmentation	VCAM-1 imaging	VCAM-1 down
CCCC(O)(CCN(C)C)c1ccc(OC)cc1 (configuration not stated)	1	5	i	i	i
O=C(c1ccccc1Oc1nnnn1-c1ccccc1)N1CCOCC1	6	4	i	i	i
O=C(COc1ccc(Cl)cc1)Nc1nc(-c2cccs2)cs1	-6	-3	i	i	i
CCc1cccc(NC(=O)Nc2cccs2)c1	11	5	·	·	·
CC1(C)Cc2nc3oc4c(N(CCO)Cc5ccccc5)ncnc4c3cc2CO1	9	1	i	i	i
CC(=O)/C(C[N+]1(C)CCCCC1)=N\O	0	4	i	i	i
